Source: PubChem (National Center for Advancing Translational Sciences (NCATS))
D2 potentiator: positive allosteric modulators of human D2 dopamine receptor. DiscoveRx D2 beta-arrestin cells, luminescence, 90 min; 100% = 57 uM dopamine signal. AID 624464. 0.23% of 360,000 active. P14416. potentiation, % (concentration not given with the values); active = potentiation of 50% or more; inconclusive = 30% to 50%; inactive = 30% or less;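 also: compound concentration not given in the record; tested on top of an EC20 dose of dopamine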
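PathHunter beta-arrestin assay in DiscoveRx D2 cells. Compounds were added with an EC20 of dopamine (50 nM final) for 90 min at 37 deg C. Luminescence was read 1 h after detection reagent, with 57 uM dopamine as the EC100 control.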
CtBP-E1A blk: CtBP/E1A binding inhibition; AlphaScreen GST-E1A/His-CtBP binding, 1536-well; hits give low values; control for the full effect not named in the record; activity change, % (test concentration not listed); 0.49% of 340,000 active; in the data active means activity change below about -65%; inconclusive means about -30% to -65%; inactive means above about -30%; also: % is scaled to controls: 0 for no effect and ±100 for the full control effect; compound concentration not given in the record
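Steps: dispense buffer (Tris pH 8.0, NaCl 300 mM, TCEP 1 mM, BSA, Tween 20); add 5X protein mix (GST-E1A, His-CtBP, 125 nM each); pin 23 nL compound; 2 h at 37 °C, dark; add 5X beads (50 ug/mL); 1 h; read.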
Sfp inh: Sfp phosphopantetheinyl transferase inhibition | Q9F4F7 | Biochemical Sfp PPTase activity, qHTS | Potency, µM, for the others: max response, negative = inhibition, hits mostly inhibitors | 3.5% of 310,000 active | AID 1490; active = well fitted inhibition curve with a large enough effect; inconclusive = small, poorly fitted or top-dose-only effect, or another doubt; inactive = no such curve, though single readings can be large or run the other way;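 also: the enzyme is Sfp with the accession as filed and its product quenches rhodamine fluorescence; potency is read from the fitted curve at half-maximal effect; 0% = enzyme reaction without inhibitor and -100% = no enzyme wells; top concentration of the series not given in the record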
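Compounds were incubated with enzyme (final 15 nM) for 15 min at room temperature before substrate addition started the reaction. Fluorescence at 525 nm excitation, 598 nm emission was recorded immediately and after 30 minutes.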
Six1-Eya2 inh: blocks human Six1 binding to Eya2 | Q15475+O00167 | AlphaScreen GST-Six1/His-Eya2 binding, biochemical; hits give low values; control for the full effect not named in the record | activity change, % (no concentration beside the values) | 0.56% of 360,000 active | AID 651725; in the data active = activity change below about -65%; inconclusive = about -30% to -65%; inactive = above about -30%; also: % is scaled to controls: 0 for no effect and ±100 for the full control effect; compound concentration not given in the record
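AlphaScreen luminescence read after one hour at 37 °C in darkness. Pin-transferred compounds met GST-Six1 and His-Eya2 protein (5X stock 250 nM/500 nM) plus glutathione donor and Ni-chelate acceptor beads (5X, 50 ug/mL).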
D2 agonist: human D2 receptor agonism in beta-arrestin assay; DiscoveRx PathHunter D2 beta-arrestin, luminescence, 90 min; 100% = 57 uM dopamine signal; activation, % (concentration not given with the values); 0.084% of 360,000 active; AID 624465; in the data active = activation above about 40%; inconclusive = about 15% to 40%; inactive = below about 15%; also: compound concentration not given in the record; the text of the record calls up to 30% inactive
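Agonist mode: compounds alone added to overnight-plated D2 PathHunter cells for 90 min at 37 C, with 57 uM final dopamine (EC100) defining full response. Beta-arrestin recruitment detected by chemiluminescent reagent, read after 1 h at ambient temperature.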
PINK1 expr mod: modulators of PINK1 expression; PINK1 immunofluorescence, high-content cytometry, 24 h; Potency, µM (top dose mostly 76.6 µM), inactives show at the highest dose activation (PINK1 increase), usual class: activators; 0.2% of 410,000 active; active = well fitted activation curve with a large enough effect; inconclusive = small, poorly fitted or top-dose-only effect; inactive = flat fitted curve, though single readings scatter; cell line not stated here;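 also: potency is read from the fitted curve at half-maximal effect; % of control where 0% means no effect; nearly all actives have a fitted effect of over 65% in size; a mitochondrial uncoupler was the plate control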
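Decision-based qHTS: stable cells, 24 h exposure to five compound concentrations, CCCP as control. Fixed cells stained for PINK1 plus nuclear, mitochondrial and cell markers, cytometer read.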
TRPV1 potentiator: enhances activation of the human vanilloid receptor TRPV1 | Q8NER1 | TRPV1-expressing cells, Fluo-8 calcium influx, capsaicin EC20 potentiation; host cell line not named in the record; control for the full effect not named in the record | potentiation, % at 8.33 µM | 0.02% of 320,000 active; active means potentiation above 80%; inconclusive means 30% to 80%; inactive means below 30%; also: 0% is about no effect
Target sequence (Q8NER1 whole entry, looked up): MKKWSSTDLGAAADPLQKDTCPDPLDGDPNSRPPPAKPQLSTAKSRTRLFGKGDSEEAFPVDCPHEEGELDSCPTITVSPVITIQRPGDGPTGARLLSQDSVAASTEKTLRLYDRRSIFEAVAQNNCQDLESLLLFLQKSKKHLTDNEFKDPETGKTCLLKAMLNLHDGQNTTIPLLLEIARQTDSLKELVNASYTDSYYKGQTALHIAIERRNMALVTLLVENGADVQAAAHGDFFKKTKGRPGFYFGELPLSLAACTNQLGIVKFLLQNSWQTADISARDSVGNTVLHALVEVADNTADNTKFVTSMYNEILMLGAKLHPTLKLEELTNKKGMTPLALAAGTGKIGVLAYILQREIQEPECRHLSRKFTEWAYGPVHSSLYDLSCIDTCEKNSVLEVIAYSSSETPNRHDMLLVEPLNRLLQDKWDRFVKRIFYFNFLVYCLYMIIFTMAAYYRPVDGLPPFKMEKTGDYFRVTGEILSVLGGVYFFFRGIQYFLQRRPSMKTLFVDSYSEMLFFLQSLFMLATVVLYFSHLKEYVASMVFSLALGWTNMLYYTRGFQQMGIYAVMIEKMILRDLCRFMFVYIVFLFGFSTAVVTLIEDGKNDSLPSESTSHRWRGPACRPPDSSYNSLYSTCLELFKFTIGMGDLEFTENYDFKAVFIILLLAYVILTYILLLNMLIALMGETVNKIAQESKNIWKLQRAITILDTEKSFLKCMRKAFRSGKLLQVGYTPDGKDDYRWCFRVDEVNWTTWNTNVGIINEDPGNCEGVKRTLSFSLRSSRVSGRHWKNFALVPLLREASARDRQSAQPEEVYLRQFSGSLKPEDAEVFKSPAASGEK
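Fluo-8 calcium influx in TRPV1-expressing cells, kinetic read (ex 480/em 520 nm). Compound added and read 3 min for agonist activity, followed by capsaicin at EC20 final and 2 min further read for enhancement.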
* hit, by the source's call; ? = inconclusive; · = not tested or not shown; & = joins results of further samples; [ ] = another dose, or the depositor's remark.

SMILES	D2 potentiator	CtBP-E1A blk	Sfp inh	Six1-Eya2 inh	D2 agonist	PINK1 expr mod	TRPV1 potentiator
CCC(C)Sc1cc(-c2nc3ccc(Cl)cn3c2NC2CCCCC2)ccc1OC (stereo not given)	-11	-1&-9	·	-16&16	-1.5	?	·
CCc1ccccc1NC(=O)CSc1nnc(Cn2cnc3ccccc32)o1	-3	1	13%	8	-2.8	0.6%	11
COc1ccc(CC(=O)Nc2c3c(nn2C(C)(C)C)CS(=O)(=O)C3)cc1OC	-1	12	-27%	-3	1.6	-0.9%	19
CC1(C)CC(=O)C2=C(C1)OC(N)=C(C#N)C2c1cccs1 (stereo not given)	-9	-3	10%	6	0.4	-1.3%	3
CC(=O)c1ccc(Sc2nnnn2-c2ccccc2)c([N+](=O)[O-])c1	-5	9	-9%	-5	5.0	-0.9%	2
COC(=O)c1c(O)cc(C(C)(C)C)n(-c2ccccc2)c1=O	-18	-10	-2%	6	-0.8	-1.3%	0
COC(=O)C[C@H]1C[C@@H]2c3cc(N(C)C)ccc3O[C@@H]2[C@H](CO)O1	0	-2	·	0	-11	-0.3%	·
COc1cccc(CNS(=O)(=O)c2ccc3c(c2)CC(C)N3C(=O)C2CC2)c1 (stereo not given)	-1	3	14%	0	-1.3	0.9%	-9
Cc1ccccc1-c1nnc(SCC(=O)NC2CCCCC2)o1	-12	1	-3%	2	-1.1	0.1%	-11
Cc1ccc(CS(=O)Cc2ccc(C(=O)NCc3ccccc3Br)o2)cc1 (stereo not given)	-8	-4	6%	-2	-3.6	3.7%	12
Cc1ccccc1S(=O)(=O)Nc1ncnc2scc(-c3ccccc3)c12	18	4	2%	13	0.0	1.3%	26
Cc1ccc(C2CC(C(F)(F)F)n3nc(C(=O)Nc4c(C)n(C)n(-c5ccccc5)c4=O)cc3N2)cc1 (stereo not given)	-16	0	17%	-2	-2.4	-0.4%	-4
CC(C)C[C@H](NC(=O)c1nc[nH]c1C(=O)N[C@@H](CCCCN)C(=O)OC(C)(C)C)C(=O)OC(C)(C)C	-18	·	·	5	-6.2	1.1%	·
CCCCOCCCNC(=O)N[C@H](C(=O)OC)C(C)CC (stereo not given in full)	-4	-14	23%	7	-3.5	-1.9%	8
COc1ccc(Br)cc1CNC(=O)C1CCN(S(=O)(=O)N2CCCC2)CC1	-4	11	9%	0	-1.0	·	-9
O=C(Cn1c(NCCCO)nc2ccccc21)c1ccc(Cl)cc1Cl	-8	2	-14%	1	1.6	1.3%	-13
Cc1cc(C)nc(/N=C(\N)Nc2cccc([N+](=O)[O-])c2)n1	-22	-2	10%	2	2.7	4.0%	6
COC(=O)c1ccc(NC(=O)CSc2nnc(-c3ccccc3)n2C)cc1	2	0	15%	3	-3.6	0.8%	18
Cn1sccc1=O	-17	0	·	6	-4.0	2.2%	-7
O=c1[nH]c2ccccc2nc1C(F)(F)C(F)F	-5	6	-10%	3	-3.7	-3.3%[38.3 µM]	?
NC(=O)C1CCN(C2CC(=O)N(c3cccc(F)c3)C2=O)CC1 (stereo not given)	12	2	-1%	0	-0.6	-3.1%	0
Cc1cccc(N=C2NN=C(c3c[nH]c4ccccc34)CS2)c1	-4	·	-50%	-21	-1.2	3.8%	6
CCc1nnc(NC(=O)c2ccc3c(c2)C(=O)N(C(C)(C)C)C3=O)s1	-3	43	13%	24	-1.9	5.9%[38.3 µM]	5
Clc1ccc(Oc2cnns2)cc1Cl	-17	14	-10%	20	0.1	-0.7%	7
CCCc1cc(=O)[nH]c(SCC(=O)Nc2sccc2C#N)n1	-19	-19	·	-24	-0.1	3.6%	5

Filtered by structure, those above containing fluorine
SMILES	D2 potentiator	CtBP-E1A blk	Sfp inh	Six1-Eya2 inh	D2 agonist	PINK1 expr mod	TRPV1 potentiator
Cc1ccc(C2CC(C(F)(F)F)n3nc(C(=O)Nc4c(C)n(C)n(-c5ccccc5)c4=O)cc3N2)cc1 (stereo not given)	-16	0	17%	-2	-2.4	-0.4%	-4
O=c1[nH]c2ccccc2nc1C(F)(F)C(F)F	-5	6	-10%	3	-3.7	-3.3%[38.3 µM]	?
NC(=O)C1CCN(C2CC(=O)N(c3cccc(F)c3)C2=O)CC1 (stereo not given)	12	2	-1%	0	-0.6	-3.1%	0

Further compounds follow.
SMILES	D2 potentiator	CtBP-E1A blk	Sfp inh	Six1-Eya2 inh	D2 agonist	PINK1 expr mod	TRPV1 potentiator
O=C1CCC([N+](=O)[O-])C(c2ccc(F)c(Br)c2)N1 (stereo not given)	3	-20	7%	-6	-3.0	2.0%	-12
O=C(CNC(=O)c1ccccc1)OCN1C(=O)c2ccccc2C1=O	-20	7	·	4	-4.0	3.2%	·
CCCC(=O)Nc1nnc(SCC(=O)NCc2ccc3c(c2)OCO3)s1	-1	15	-16%	1	-2.5	2.2%	1
Cc1ccc(C(=O)NCC(=O)NCc2ccccc2F)s1	-3	3	·	-4	-3.4	-0.2%	·
CCCCNC(=O)C1(C)CCN1C(=O)c1cc(F)ccc1C (stereo not given)	-6	-16	·	4	6.1	0.6%	·
O=C(OCC(O)C(O)C(O)COC(=O)c1ccccc1)c1ccccc1 (stereo not given)	1	10	·	7	6.5	-0.7%	·
CCC1Sc2ccc(S(=O)(=O)CCC(=O)NC3CCCCCC3)cc2NC1=O (stereo not given)	-4	-11	9%	-5	-5.6	0.6%	1
CCOC(=O)[C@H]1[C@H]2COc3cc(OC)ccc3[C@@H]2N2C(=O)N(c3ccc(Cl)cc3)C(=O)[C@@]12C	-9	-20	10%	-21	-2.7	1.2%	16
CC(OC(=O)CCC(=O)c1ccc(F)cc1)C(=O)NC1CCCCC1C (stereo not given)	-4	-1	11%	2	-2.7	1.8%	-32
CCN(CC(=O)Nc1c(F)cccc1F)C(=O)C1CCCN(C(=O)c2ccc(Cl)cc2)C1 (stereo not given)	-9	6	9%	3	-4.7	1.0%	1
Cc1cc(NCCO)c2cc(O)ccc2n1	-15	-23	7%	-15	-2.6	?	-25
Cc1ccc([C@H]2C[C@@H](n3cc(COC(=O)c4ccccc4)nn3)[C@H](O)CN2C(=O)C2CCCCC2)cc1	-10	-20	·	8	0.3	-0.4%	·
CCOC(=O)C(Nc1ccc2ccccc2c1)C(=O)OCC	?	-29	-1%	-28	0.9	5.0%	19
CCC(C)C(NC(=O)C1CCC(C)CC1)C(=O)NCc1cccnc1 (stereo not given)	-11	-3	-12%	2	-1.7	1.6%	-8
COc1cc(C2C(C(=O)c3ccc(C)o3)=C(O)C(=O)N2CCCn2ccnc2)cc(OC)c1OC (stereo not given)	-6	-9	-2%	-2	1.6	2.1%	3
FC(F)Oc1ccc(NC(=S)N2CCN(Cc3ccccc3)CC2)cc1	-6	-21	18%	6	-4.8	-1.4%	1
O=C(COC(=O)c1cccnc1)Nc1ccc2c(c1)OCO2	1	5	14%	2	-3.4	-0.7%	4
COc1ccc(CCNC(=O)/C(C#N)=C2\N=C(NC(=O)c3cccs3)c3ccccc32)cc1	1	4	-1%	-10	2.6	17%	9
COc1cc(O)c(C(=O)CC(=O)c2ccncc2)c(OC)c1	1	0	·	-4	0.5	1.4%	·
C/C(N)=C(/C#N)C(=O)COC(=O)COc1ccc(Cl)cc1	-5&4	2&-2	12%	6&4	8.3&-1.6	-1.3%&0.4%	-6
Cc1cccc2[nH]c(CN(C)C(=O)C3CCC(=O)N(C4CC4)C3)nc12 (stereo not given)	-7	·	7%	8	3.1	3.6%	-1
COc1cccc(NC(=O)N2CCOCC2)c1	-10	2	9%	5	-8.1	-3.0%	3
COc1cccc(/C=N/NC(=S)NCCc2ccccc2)c1OC	-22	-9	12%	-12	4.1	1.9%	10
CC(=O)C(Sc1nc(NC(C)(C)C)nc(N(C)C)n1)C(C)=O	-19	0	12%	4	-1.4	5.1%	2
COc1cccc(C(=O)N2CCN(Cc3ccco3)CC2)c1OC	4	3	-23%	6	-2.9	-1.0%	-3
CCOc1ccccc1-c1nc(CN2CCN(C(=O)c3ccco3)CC2)c(C)o1	-28	-2	10%	-10	-2.3	-1.5%	7

Four compounds from above, ordered by SMILES length, descending:
SMILES	D2 potentiator	CtBP-E1A blk	Sfp inh	Six1-Eya2 inh	D2 agonist	PINK1 expr mod	TRPV1 potentiator
O=C1CCC([N+](=O)[O-])C(c2ccc(F)c(Br)c2)N1 (stereo not given)	3	-20	7%	-6	-3.0	2.0%	-12
COc1cccc(C(=O)N2CCN(Cc3ccco3)CC2)c1OC	4	3	-23%	6	-2.9	-1.0%	-3
CCCCNC(=O)C1(C)CCN1C(=O)c1cc(F)ccc1C (stereo not given)	-6	-16	·	4	6.1	0.6%	·
Cc1ccc(C(=O)NCC(=O)NCc2ccccc2F)s1	-3	3	·	-4	-3.4	-0.2%	·
